Source: PubChem BioAssay
HIV TAR-Tat: HIV-1 TAR-Tat binding disruption; AID 1259389; HIV-1 TAR RNA, Tat peptide displacement FRET; active compounds read high; z-score (test concentration not listed); 0.6% of 100,000 active;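 further: score is relative to mean and SD of negative controls; some compounds called inactive have numbers as strong as hits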
CDC25B CDK2 inh: human CDC25B-CDK2/CyclinA binding inhibition | P30305+P24941 | HTRF CDC25B-CDK2/CyclinA binding, anti-His/anti-Flag; active compounds read high | z-score (concentration not given with the values) | 0.72% of 94,000 active | AID 1259370;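 further: score is relative to mean and SD of negative controls; strong numbers were not always called active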
Numbers without * were called inactive; . = not tested or not shown.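 How the source made its calls: active means z-score from 3 up in half or more of its runs; inactive means the rest.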

The first six compounds, ahead of the listing:
SMILES | HIV TAR-Tat | CDC25B CDK2 inh
COc1ccc(Cc2nnc(SCc3ccc(C)cc3)o2)cc1 | 2.4 | -0.83
CC1(C(=O)NC2CCCCC2)Cn2c(c(-n3cccc3)c3ccccc32)C(=O)N1Cc1cccs1 (configuration not stated) | 0.61 | .
Cc1ccc(S(=O)(=O)NC2=NCN(C(C)C)CN2)cc1 | 0.41 | -2.7
CC(C)n1c(N2CCN(C(=O)c3[nH]nc4c3CCc3ccccc3-4)CC2)cc(=O)n(C(C)C)c1=O | 2.4 | .
CCc1ccccc1N1CC(O)=C(c2nc3ccccc3c(=O)[nH]2)C1=N | -0.12 | -0.52
Cc1ccc(-c2cnnc(-n3nc(C)c4c3NC(=O)CC4c3cc(F)cc(F)c3)n2)cc1 (configuration not stated) | 0.2 | -2.6

The list itself, from the start:
SMILES | HIV TAR-Tat | CDC25B CDK2 inh
COc1ccc(Cc2nnc(SCc3ccc(C)cc3)o2)cc1 | 2.4 | -0.83
CC1(C(=O)NC2CCCCC2)Cn2c(c(-n3cccc3)c3ccccc32)C(=O)N1Cc1cccs1 (configuration not stated) | 0.61 | .
Cc1ccc(S(=O)(=O)NC2=NCN(C(C)C)CN2)cc1 | 0.41 | -2.7
CC(C)n1c(N2CCN(C(=O)c3[nH]nc4c3CCc3ccccc3-4)CC2)cc(=O)n(C(C)C)c1=O | 2.4 | .
CCc1ccccc1N1CC(O)=C(c2nc3ccccc3c(=O)[nH]2)C1=N | -0.12 | -0.52
Cc1ccc(-c2cnnc(-n3nc(C)c4c3NC(=O)CC4c3cc(F)cc(F)c3)n2)cc1 (configuration not stated) | 0.2 | -2.6
O=C(OCCN1CCCCC1)c1cccs1 | 4.7 | -0.76
Cc1nc(-c2ccc(F)cc2)sc1CCNS(=O)(=O)c1ccc(Br)cc1 | 0.47 | .
O=C(CN1c2ccc(Br)cc2-c2ccccc2S1(=O)=O)N1CCCCC1 | 1.3 | -2.1
FC(F)(F)c1cc(-c2ccc(Br)cc2)nc2ncnn12 | 0.72 | 0.77
CCOCCCNc1ncc2c(n1)CC(c1cccs1)CC2=O (configuration not stated) | . | -1.3
Cc1ccc2nc(-c3cccnc3)cc(C(=O)NCC3CCCO3)c2c1 (configuration not stated) | -0.8 | .
CCc1nnc2c3c(-c4ccc(F)cc4)c(C)sc3ncn12 | . | 0.01
COc1ccc2scc(N3CCN(C/C=C/c4ccccc4)CC3)c(=O)c2c1 | -1 | .
COc1ccc(S(=O)(=O)n2c(C)nc3ccccc32)cc1OC | 0.36 | -1.4
Cc1cc(Cc2ccc(C(F)(F)F)cc2)c(=O)[nH]n1 | . | -1.6
Cc1cc(C)cc(Oc2coc3c(CN(C)C)c(O)ccc3c2=O)c1 | . | 1.6
Cc1oc(C(=O)O)cc1COc1ccc2c(C)cc(=O)oc2c1 | . | -0.08
O=C(NCCCN1CCCC1)c1ccc(NC2=NC3CS(=O)(=O)CC3S2)cc1 (configuration not stated) | 1.8 | 0.3
COC(=O)c1ccc(-c2ccco2)n1CC(=O)NCCN1CCOCC1 | -0.12 | .
O=C(c1ccccc1)N1CCn2c1nc1ccccc1c2=O | 1 | 2.5
COc1ccc(C2C3=C(CC(C)(C)CC3=O)Nc3n[nH]c(-c4ccc(C)cc4)c32)cc1OC (configuration not stated) | 1.4 | .
Nc1nnc(SCC(=O)Nc2ccc(Cl)cc2)s1 | . | 0.5
Cc1ccc(C2NC(=S)NC(O)(C(F)(F)F)C2C(=O)c2ccccc2)o1 (configuration not stated) | . | -1.5

Taken from above:
Result for COc1ccc2scc(N3CCN(C/C=C/c4ccccc4)CC3)c(=O)c2c1 in HIV TAR-Tat: -1
Result for Cc1cc(Cc2ccc(C(F)(F)F)cc2)c(=O)[nH]n1 in CDC25B CDK2 inh: -1.6
Result for O=C(NCCCN1CCCC1)c1ccc(NC2=NC3CS(=O)(=O)CC3S2)cc1 (configuration not stated) in CDC25B CDK2 inh: 0.3
Result for COc1ccc(S(=O)(=O)n2c(C)nc3ccccc32)cc1OC in HIV TAR-Tat: 0.36
Result for COC(=O)c1ccc(-c2ccco2)n1CC(=O)NCCN1CCOCC1 in HIV TAR-Tat: -0.12

Additional compounds follow:
SMILES | HIV TAR-Tat | CDC25B CDK2 inh
COc1ccc(C(=O)NNS(=O)(=O)c2cn(C)cn2)cc1OC1CCCC1 | . | -0.99
CC(=O)N(CCCN(C)C)c1nc2c(F)cc(F)cc2s1 | 1.3 | .
Cc1nc(-n2[nH]c(C)c(CCC(=O)Nc3ccc(Cl)cc3)c2=O)sc1C | 0.08 | -3.3
CCC1CCCCN1CCCNC(=O)Cn1cc2c(n1)CCCC2 (configuration not stated) | -0.51 | -3.9
O=c1cc(-c2ccccc2)nc(NCc2cccnc2)[nH]1 | 1.1 | -1.7
Cc1ccn2c(=O)c(NC(=O)CCC3CCCCC3)c(C)nc2c1 | 1.2 | .
CCOC(=O)c1nc2c(c(C)c(C)n2-c2cccc(Cl)c2)c(=O)[nH]1 | -0.18 | -1.1
CCCCN(Cc1ccco1)C(=O)C(=O)Nc1ccc2nc3n(c(=O)c2c1)CCCCC3 | . | -2
Cc1ncc(CO)c(CNc2ccc3c(c2)N2CCN=C2S3)c1O | 0.4 | .
CC1CCCC(NC(=O)CCS(=O)(=O)c2cc3c(cc2Cl)NC(=O)CO3)C1C (configuration not stated) | 1.6 | .
CCOC(=O)c1sc2ncc(S(=O)(=O)c3ccc(OC)cc3)c(=O)n2c1C | 5 | 0.56
O=c1ccc(-c2ccc(S(=O)(=O)NCCN3CCN(c4ccccc4F)CC3)s2)n[nH]1 | -0.07 | .
c1ccc(CN2CCc3nc(Nc4ccc5c(c4)OCO5)ncc3C2)cc1 | 0.96 | .
Cc1nn(C)c2[nH]c(C(F)(F)F)cc(=O)c12 | . | -0.39
CCc1ccc(N2CN(Cc3ccco3)CNC2=S)cc1 | . | 0.09
O=C(c1nn2c(C(F)(F)F)cc(-c3ccc(F)cc3)nc2c1Cl)N1CCOCC1 | 0.5 | -2.5
CN(C)c1ccc2nc3c(=O)n(C4CCCCC4)c(=O)[nH]c3nc2c1 | -5.5 | -1.3
CC(C)c1cccc2c1-c1ccccc1C2=O | 0.2 | -4.1
COc1ccc2cnn(-c3nc4ccccc4[nH]3)c(=O)c2c1OC | -0.07 | -0.85
CCc1nc2nc(C)cc(Nc3cccc(C)c3C)n2n1 | 0.64 | -1.1
CC(=O)N1c2ccccc2CC1C(=O)N1CCN(C(=O)c2ccco2)CC1 (configuration not stated) | 0.84 | .
O=S1(=O)NN=C(c2ccccc2F)c2cc(Cl)ccc21 | 1.3 | 1.4
CCn1c2ccccc2c2cc(C=Nn3c(-c4ccccc4)n[nH]c3=S)ccc21 | . | 1.4
NC(=O)C1CCN(C(=O)CN2CCc3ccccc3C2)CC1 | -0.21 | -0.48
CCOC(S)=Nc1ccccc1 | . | -1.3
N#CCOc1ccc(Br)cc1 | . | -1
Cc1ccc(Cl)cc1-n1nnc(-c2nc(-c3cccnc3)no2)c1N | 0.64 | .
O=S1(=O)N=CNc2ccc(S(=O)(=O)Nc3ccccc3Br)cc21 | -0.85 | .
CC1CC(NC(=S)NCCO)CC(C)(C)C1 (configuration not stated) | . | -1.2
CC1C(=O)Nc2ccc(S(=O)(=O)NC3CS(=O)(=O)CC3Cl)cc2NC1=O (configuration not stated) | . | -19
CC(C)C12CN3CC(C(C)C)(CN(C1)C3c1cccc(Br)c1)C2=O (configuration not stated) | . | -1.5
O=c1c2ccccc2n2nnnc2n1-c1ccccc1 | . | -1.2
Oc1ccc(Cl)c2cccnc12 | 0.02 | .
CCC1Oc2ccc(Cl)cc2N(CC(=O)Nc2ccc3c(c2)C(=O)N(C)C2=NCCN23)C1=O (configuration not stated) | 0.81 | .
CCOC(=O)N1CCN(C(=O)c2cn(CC(C)C)c(=O)c3c2c2ccccc2n3C)CC1 | 0.31 | -1.1
Cc1cccc2c1Oc1[nH]c(-c3cccc(O)c3)nc(=S)c1C2 | 0.57 | -1.2
Cc1ccc(Nc2cc(-c3ccccc3)nc(C)n2)cc1 | 0.62 | 1.2
COc1ccc(C2CC(=O)N3CN(c4ccc(OC)cc4OC)CSC3=C2C#N)c(OC)c1 (configuration not stated) | -1.7 | 5.7
O=C1CC(C(=O)Nc2ccc(F)c(Cl)c2)N=C(N2CCCCC2)N1 (configuration not stated) | 0.23 | -0.71
CCOC(=O)c1sc(NC(=O)C(CC)Sc2nnc(C)c(=O)[nH]2)nc1C (configuration not stated) | . | 0.06
COc1ccc(Br)c(-c2nnc(-c3ccccc3Cl)o2)c1 | 1.2 | -1.3
N#Cc1nc(/C=C/c2ccccc2)oc1N1CCN(C(=O)c2ccco2)CC1 | 1.4 | -1.8
CSc1ccc(CCNC(=O)COCc2cc(-c3ccc4c(c3)OCO4)on2)cc1 | 1.9 | .
CCN(CC)CCn1c2ccccc2n2cc(C)nc12 | 2 | -0.25
COc1ccc(OCC(=O)Nc2nc(-c3ccc(C)s3)ns2)cc1 | 0.09 | -2.5
COc1ccc(OC)c(NC(=O)CCS(=O)(=O)c2ccc3c(c2)CC(C)N3C(=O)C2CC2)c1 (configuration not stated) | -0.13 | .
O=c1c2ccccc2n2c(-c3ccc(F)c(F)c3)nnc2n1Cc1ccccc1 | 1.3 | -0.26
CSc1cccc(NS(=O)(=O)c2ccc(-c3cnc(C)o3)cc2)c1 | 0.71 | .
Cc1nc2sccn2c(=O)c1S(=O)(=O)N1CCN(c2cccc(Cl)c2)CC1 | 2 | .
Fc1ccc(-c2cc(-c3nc4c5ccccc5ncn4n3)[nH]n2)cc1 | 0.47 | -0.7
COC(=O)c1cc(OC)c(OC)cc1NC(=O)CSc1ccc(Cl)cc1 | . | -0.75
COc1ccc(OC)c(NC(=O)Cn2nnc3sc4c(c3c2=O)CCCC4)c1 | 0.21 | -1.2
Fc1cccc(Nc2ncnc3onc(-c4ccc(Cl)cc4)c23)c1 | 18* | .
CCC(C)(C(=O)NC1CCCC1)N(Cc1cccs1)C(=O)CC1NC(=O)NC1=O (configuration not stated) | . | -0.65
CCCCNC(=O)c1oc2ccc(S(=O)(=O)N3CCOCC3)cc2c1C | . | -0.16
C=CCN(Cc1nc(-c2ccc(OC)cc2)no1)S(=O)(=O)c1ccc(Br)cc1 | 1.6 | 0.08
CCCc1cc(N2CCN(c3ccccc3F)CC2)n2cnnc2n1 | -0.77 | -1.4
O=C(c1ccc2c(c1)OCCO2)N1CCC(c2nc3c(nnn3Cc3ccc(F)cc3)c(=O)[nH]2)CC1 | 2.5 | 0.5
COc1ccc(OC)c(C2=NOC(C(=O)Nc3cc(C)on3)C2)c1 (configuration not stated) | -0.49 | -0.07
O=C(NC1CCCCNC1=O)c1cnn(-c2ccccc2)c1C(F)(F)F (configuration not stated) | . | -0.04
(continued)
SMILES | HIV TAR-Tat | CDC25B CDK2 inh
Cc1ccc(S(=O)(=O)N2CCCC(c3nc(-c4ccccc4C)no3)C2)cc1C (configuration not stated) | 1.6 | .
C=CCn1c(SCC(=O)N2CCCCC2)nc2sc(C)c(C)c2c1=O | . | 0.23
Cn1c(-c2ccccc2O)[n+](C)c2ccccc21 | 0.92 | -1.4
Cc1cn2c(=O)c(S(=O)(=O)Nc3cc(F)ccc3F)c(C)nc2s1 | 0.36 | .
Cc1onc(-c2c(F)cccc2Cl)c1C(=O)NC(=S)N=S(C)(=O)c1ccc(Cl)cc1 (configuration not stated) | . | -21
COc1ccc(OCCn2c(C3CC(=O)N(c4cc(OC)ccc4OC)C3)nc3ccccc32)cc1 (configuration not stated) | 1.1 | -2.1
O=C(Nc1ccc(Cl)cc1)N1CCN(c2cnccn2)CC1 | 1.2 | -0.19
Cc1ccccc1CSc1nc2c(C)cccc2[nH]1 | 0.15 | 1.2
CCOC(=O)Nc1c(C)n(C)n(-c2ccccc2)c1=O | 3.8 | 0.21
CC(C)CCNC(=O)C1CCN(c2nnc(N3CCCC3=O)s2)CC1 | 2 | .
Cc1cc(C)c(NS(=O)(=O)c2cc3[nH]c4c(c3cc2C)C(=O)CCC4)c(C)c1 | 2.1 | .
Cc1nc(-c2cccs2)c(CC(=O)Nc2ccc(N3CCCC3)cc2)s1 | -0.42 | 12*
COc1ccc(C2CC(=O)c3cnc(NC(=O)c4ccccc4)nc3C2)cc1OC (configuration not stated) | . | -0.81
O=C(CC12CC3CC(C1)CC(CC(=O)Nc1ccccc1)(C3)C2)Nc1ccccc1 | . | -0.47
CCOC(=O)c1c(C)oc2ccc(NS(=O)(=O)c3ccc(Cl)cc3)cc12 | 0.58 | 0.25
Cc1ccccc1-c1nc2scc(CCNS(C)(=O)=O)n2n1 | 0.43 | .
COc1cc(OC)c2c(=O)c(OC)c(-c3ccc(OC)c(OC)c3)oc2c1 | 1.9 | .
O=C1CCCC(=O)C1C(=O)c1ccc(C(F)(F)F)cc1[N+](=O)[O-] | . | -0.31
CCOC(=O)/C(C#N)=C/Nc1ccsc1C(=O)OC | . | -0.26
CCC1c2ccc(C)n2CCN1C(=O)NCc1ccco1 (configuration not stated) | -9.6 | -2
CC1CN(Cc2nc3c(c(=O)[nH]c(=O)n3C)n2CCN2CCOCC2)CC(C)O1 (configuration not stated) | 0.97 | -0.87
CCN(CCS(=O)(=O)N1CCNCC1)S(=O)(=O)c1ccc(Br)cc1 | 2.1 | .
CN(C(=O)Cc1noc2ccccc12)c1ccccc1F | 0.99 | -0.94
CCNc1cc(N2CCN(c3ccccn3)CC2)c2noc3c2c1C(=O)c1ccccc1-3 | -1.7 | -2

In a second layout: 4 of the compounds above
Second line of a record: HIV TAR-Tat	CDC25B CDK2 inh
Cc1ccc(-c2cnnc(-n3nc(C)c4c3NC(=O)CC4c3cc(F)cc(F)c3)n2)cc1 (configuration not stated)
→ 0.2	-2.6
CCc1ccc(N2CN(Cc3ccco3)CNC2=S)cc1
→ .	0.09
CC1C(=O)Nc2ccc(S(=O)(=O)NC3CS(=O)(=O)CC3Cl)cc2NC1=O (configuration not stated)
→ .	-19
CCOC(=O)/C(C#N)=C/Nc1ccsc1C(=O)OC
→ .	-0.26
